Source: PubChem
ClpP mod – qHTS Assay for Activators of ClpP; 340,000 tested, 1.9% active; purified B. subtilis ClpP, FRET peptide cleavage, 20 min; ATP-dependent Clp protease proteolytic subunit (Bacillus subtilis (strain 168)), P80244; AID 651965, 2013; Potency, µM (series often up to 57.5 µM), without a hit: top-dose activity change, negative = active; active = well fitted falling curve with a large enough effect; inconclusive = small, poorly fitted or top-dose-only effect; inactive = no such curve, though single readings can be large or run the other way; also: potency is read from the fitted curve at half-maximal effect; the source files actives as falling curves though it sought activators and does not explain the sign; nearly all actives have a fitted effect of over 65% in size; many hits overshoot -100%
Target sequence (P80244 whole entry, looked up): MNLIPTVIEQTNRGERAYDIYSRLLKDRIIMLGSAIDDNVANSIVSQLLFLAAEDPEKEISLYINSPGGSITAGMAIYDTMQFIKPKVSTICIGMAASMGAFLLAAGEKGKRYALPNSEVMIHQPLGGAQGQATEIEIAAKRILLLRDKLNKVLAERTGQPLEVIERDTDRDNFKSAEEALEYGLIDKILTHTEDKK
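Purified B. subtilis ClpP, 10 microg/mL final in Tris/HCl pH8 with KCl, BSA, glycerol and Tween-20, cleaved an Abz/nitrotyrosine-quenched decapeptide. Fluorescence (ex 320, em 430) was read at 0 and 20 min at room temperature. Delta was normalized to 5.8 microM ADEP and DMSO/no-enzyme controls.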
PINK1 expr mod – PINK1 expression modulation; 410,000 tested, 0.2% active; PINK1 immunofluorescence, high-content cytometry, 24 h; Potency, µM (titrated, usually from 76.6 µM), inactives show at the highest dose activation (PINK1 increase), usual class: activators; active = well fitted activation curve with a large enough effect; inconclusive = small, poorly fitted or top-dose-only effect; inactive = flat fitted curve, though single readings scatter; cell line not stated here;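 also: potency is read from the fitted curve at half-maximal effect; % of control where 0% means no effect; nearly all actives have a fitted effect of over 65% in size; a mitochondrial uncoupler was the plate control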
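Measures PINK1 amount and localization on or inside mitochondria by immunofluorescence. Stable cells get compounds at 5 concentrations for 24 hours before fixation and staining; CCCP controls included.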
Menin MLL FP FL – inhibitors of human menin-MLL interaction, wild-type MLL peptide; Fluorescence polarization, fluorescein-MLL peptide displacement from menin; FP activity change, % at 61.4 µM; 290,000 tested, under 10 active; AID 1766; inconclusive = falling polarisation curve, or a change in total fluorescence; inactive = total fluorescence flat and polarisation flat or rising; no compound was filed as active; the % refers to the polarisation; negative = inhibition;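 also: % of control where 0% means no effect; inhibitors lower the polarisation; unlabelled MLL peptide was the positive control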
TRPML1 agonist – agonists of human TRPML1 channel. activation, % (concentration not given with the values). 410,000 tested, 0.12% active. TRPML1-expressing cells, Ca2+ dye fluorescence, FDSS; host cell line not named in the record; reference of the full effect not given here; in the data active = activation above about 50%; inconclusive = about 30% to 50%; inactive = below about 30%; also: 0% is about no effect; the text of the record puts the active cut at 80%
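Kinetic FDSS Ca2+ read in Tet-induced TRPML1-DL cells (ABD Ca8 dye plus quencher, 45-90 min RT loading): baseline, then compound, then 110 s agonist window; EC80 agonist 54-4 at 4uM final added afterwards for a 110 s antagonist window.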
TRPV1 potentiator – potentiators of human vanilloid receptor 1 (TRPV1) | Q8NER1 | potentiation, % at 8.33 µM | 320,000 tested, 0.02% active | AID 540277 | TRPV1-expressing cells, Fluo-8 calcium influx, capsaicin EC20 potentiation; host cell line not named in the record; control for the full effect not named in the record; active means potentiation above 80%; inconclusive means 30% to 80%; inactive means below 30%; also: 0% is about no effect
Target sequence (Q8NER1 whole entry, looked up): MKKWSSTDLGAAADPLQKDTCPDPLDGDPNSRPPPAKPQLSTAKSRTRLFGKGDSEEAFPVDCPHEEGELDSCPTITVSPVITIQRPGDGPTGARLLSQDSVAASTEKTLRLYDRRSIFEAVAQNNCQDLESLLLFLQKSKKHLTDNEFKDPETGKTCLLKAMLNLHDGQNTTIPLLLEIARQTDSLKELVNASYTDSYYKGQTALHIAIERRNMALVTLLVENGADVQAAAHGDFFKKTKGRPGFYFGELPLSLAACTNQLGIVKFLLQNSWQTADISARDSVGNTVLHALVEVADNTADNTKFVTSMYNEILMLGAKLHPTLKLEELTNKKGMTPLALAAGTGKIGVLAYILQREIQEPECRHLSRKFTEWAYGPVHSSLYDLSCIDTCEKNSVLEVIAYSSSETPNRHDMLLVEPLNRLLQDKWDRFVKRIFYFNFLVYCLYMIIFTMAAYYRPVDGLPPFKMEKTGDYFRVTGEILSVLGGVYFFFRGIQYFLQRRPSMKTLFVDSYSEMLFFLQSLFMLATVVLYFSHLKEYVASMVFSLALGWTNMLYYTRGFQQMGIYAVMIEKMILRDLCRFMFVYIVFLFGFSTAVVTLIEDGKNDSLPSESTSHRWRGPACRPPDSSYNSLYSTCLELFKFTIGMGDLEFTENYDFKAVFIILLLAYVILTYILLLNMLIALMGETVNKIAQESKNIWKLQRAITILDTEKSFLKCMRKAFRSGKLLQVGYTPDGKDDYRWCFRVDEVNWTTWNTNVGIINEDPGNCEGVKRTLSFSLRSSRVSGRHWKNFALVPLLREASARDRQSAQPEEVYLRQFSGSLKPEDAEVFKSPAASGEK
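TRPV1-expressing cells were cultured overnight at 35.5C and loaded with Fluo-8 calcium dye for 40 to 90 min at room temperature. After a 10 s baseline, compound was added and calcium influx was read kinetically for 3 min (ex 480/em 520 nm).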
Sfp inh – Sfp phosphopantetheinyl transferase inhibition; Biochemical Sfp PPTase activity, qHTS; Potency, µM, without a hit: max response, negative = inhibition, hits mostly inhibitors; 310,000 tested, 3.5% active; active = well fitted inhibition curve with a large enough effect; inconclusive = small, poorly fitted or top-dose-only effect, or another doubt; inactive = no such curve, though single readings can be large or run the other way;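 also: the enzyme is Sfp with the accession as filed and its product quenches rhodamine fluorescence; potency is read from the fitted curve at half-maximal effect; 0% = enzyme reaction without inhibitor and -100% = no enzyme wells; top concentration of the series not given in the record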
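Buffer: 50 mM Hepes-Na pH 7.6, 10 mM MgCl2, 0.01% Nonidet P-40, 0.01% BSA. Enzyme 15 nM, pre-exposed to compound 15 min; substrates then added and fluorescence change tracked over 30 min.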
TRPML1 inh – blocks the human TRPML1 channel; activity change, negative = inhibition, % (concentration not given with the values); 390,000 tested, 0.02% active; TRPML1-inducible cells, Ca2+ dye fluorescence, FDSS; active compounds read low; inhibition of EC80 agonist-evoked calcium signal; AID 624415; in the data active means activity change below about -50%; inconclusive means about -30% to -50%; inactive means above about -30%;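 also: stimulus is agonist 54-4 at its EC80 concentration; % is scaled to controls: 0 for no effect and ±100 for the full control effect; the text of the record puts the active cut at -80%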
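Tet-induced TRPML1-DL cells loaded with Ca8 no-wash calcium dye were read kinetically on FDSS. Compound addition was followed by EC80 agonist 54-4 (4 uM final); inhibition was read over 110 s.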
Numbers without * were called inactive; ? = inconclusive; nt = not tested or not shown; [ ] = dose if it differs, or a comment.

SMILES	ClpP mod	PINK1 expr mod	Menin MLL FP FL	TRPML1 agonist	TRPV1 potentiator	Sfp inh	TRPML1 inh
CC(C)N(c1ccccc1)c1ccc(NC(=S)NCCN(C)C)cc1	nt	-1.0%	-0.9	2.0	5	-15%	46
Cc1ccccc1-n1nc2c(c1NC(=O)C(C)C)CS(=O)(=O)C2	0.9%	3.3%	-1.2	0.1	-9	1%	-9
CCN1CCN(c2ccc(S(=O)(=O)N3CCCCC3)cc2NC(=O)Cc2c(F)cccc2Cl)CC1	-11%	5.3%	nt	-0.5	4	-6%	2
Cc1cccc(NC(=O)Cn2c(=O)oc3cc(S(=O)(=O)N4CCCCCC4)ccc32)c1	-21%	4.0%	nt	2.8	nt	nt	-17
O=C(CN(C(=O)CCC(=O)Nc1nccs1)c1ccc(F)cc1)NCC1CCCO1 (stereo not given)	-1.4%	0.6%	3.4	-0.1	0	9%	-6
COc1cc(NC2c3ccccc3C(=O)N2Cc2ccccc2)cc(OC)c1OC (stereo not given)	nt	1.6%	20	1.2	16	5%	-10
O=S(=O)(c1ccc(-c2cc(C(F)(F)F)on2)s1)N1CCN(c2ccccc2F)CC1	-2.3%	0.3%	nt	-0.1	nt	nt	14
CC(Oc1ccc(Cl)cc1Cl)C(=O)NNC(=O)c1ccncc1 (stereo not given)	1.3%	-1.2%	nt	-0.2	0	nt	3
CC(C)Cn1c(=O)c2ccccc2n2c(SCC(=O)N3c4ccccc4CC3C)nnc12 (stereo not given)	?	7.9%	4.3	0.8	7	6%	32
O=C(c1ccc2c(c1)OCCO2)N1CCN(Cc2ccccc2)CC1	1.8%	-1.2%	1.2	0.0	-8	7%	13
S=C(NNC(=S)Nc1ccccc1)Nc1ccccc1	1.0%	?	-0.3	-0.7	18	50µM*	-8
O=C(O)COc1ccccc1/C=N/Nc1ccc(S(=O)(=O)Nc2ccc(Cl)cc2)cc1[N+](=O)[O-]	1.2%	1.9%	0.5	1.8	1	-10%	12
COc1cc(C(=O)OCC(=O)N2CCOCC2)c([N+](=O)[O-])cc1OC	nt	1.8%	-2.9	-0.1	-4	13%	7
CCN1C(=O)CC(N2CCN(c3ccc(Cl)cc3)CC2)C1=O (stereo not given)	-7.7%	0.7%	1.7	0.7	-1	25%	-15
COc1ccc(N2CCN(S(=O)(=O)c3ccc4c(c3)CCCN4C(C)=O)CC2)cc1	-2.2%	-1.2%	nt	-0.4	nt	nt	-2
COc1ccc(NC(=O)CN(C)C(=O)CCCNC(=O)c2ccc(Cl)cc2)cc1	0.4%	1.7%	nt	-1.1	-13	nt	13
COc1ccc(Nc2nnc(-c3ccc(C(N)=O)cc3)c3ccccc23)cc1	1.7%	1.4%	-0.7	-0.3	4	0%	-4
COc1cc(C2C(C#N)=C(N)OC3=C2C(=O)CC(C)(C)C3)ccc1OCCN1CCOCC1 (stereo not given)	nt	-1.2%	-0.3	0.0	0	-7%	5
COc1ccc(NC(=O)Cn2c(=O)n(-c3cccc(C)c3)c(=O)c3c2c2cc(C)ccc2n3C)cc1OC	4.2%	6.1%	nt	-0.4	nt	nt	-5
O=C1CC(Sc2nnnn2-c2ccccc2)C(=O)N1c1cccc(Cl)c1 (stereo not given)	-1.8%	0.6%	1.4	0.8	18	13µM*	7
Cc1cccc(CN2C(=O)c3ccccc3S(=O)(=O)c3ccc(C(=O)NC4CCCCC4)cc32)c1	-1.0%	2.1%	nt	-0.4	nt	nt	-1
O=C(COC(=O)c1cc(-c2ccccc2)nc2c(Cl)cccc12)c1ccc(F)cc1	-11%	1.6%	nt	-0.4	nt	nt	6
CC(=O)N(C)c1ccc(NC(=S)Nc2ccccc2)cc1	-2.3%	1.9%	-0.7	-1.1	1	-3%	-4
Cc1[nH]c2ccccc2c1/C=N/Nc1nncn1N	nt	1.0%	-1.5	-0.5	2	8.9µM*	-2
COCCCN1CC(=O)N2C(c3ccc(OC)c(OC)c3)c3[nH]c4ccccc4c3C[C@H]2C1=O (stereo not given in full)	nt	0.9%	6.2	0.9	-7	-6%	23
O=C(NCc1ccccc1)C1COc2ccccc2O1 (stereo not given)	1.1%	-0.4%	1.0	0.6	-2	-2%	-5
Cc1ccc(F)c(Oc2cc(NN3CCCCC3)c([N+](=O)[O-])cc2[N+](=O)[O-])c1	-3.2%	0.4%	-12	1.0	7	3%	-3
CC(OC(=O)c1cc2sccc2n1C)C(=O)NCc1ccc(F)cc1 (stereo not given)	-2.5%	12%	-3.5	0.3	-11	-14%	17
Cc1ccc2c(C(=O)CNc3nc(C)c(C)s3)c(C)[nH]c2c1	-9.0%	-0.2%	nt	-0.8	nt	nt	nt
CCOCC(=O)Nc1nnc(Cc2ccc(OC)cc2)s1	-0.2%	-0.3%	-0.8	0.5	28	17%	-2
O=C1CCCC2=C1C(c1ccsc1)CC(=O)N2c1ccccc1F (stereo not given)	nt	3.4%	-3.2	-0.3	0	23%	-7
COc1ccc2nc(Nc3nc(CSc4nnnn4-c4ccccc4)cc(=O)[nH]3)nc(C)c2c1	-1.6%	-0.2%	1.2	0.1	2	17%	13
Cc1cc2c(cc1C)/C(=C\C(N)=O)NC(C)(C)C2	-2.2%	3.0%	0.0	0.7	-4	-6%	-10
CCCCN(C)CCNC(=O)c1cc2c(=O)n(C)c3ccccc3c2n1C	3.6%	-0.5%	nt	-0.7	nt	nt	8
CCCCOc1ccc(N=Cc2cccs2)cc1	1.8%	-0.2%	nt	0.0	1	-1%	21
CN(C(=O)c1coc(=O)c2ccccc12)c1ccccc1Cl	nt	-1.8%	1.7	0.7	-6	5%	21
Cc1nc(NC(=S)NC(=O)c2ccco2)sc1C(=O)N(C)C	0.4%	0.1%	-3.0	-0.9	2	22µM*	-7
Cc1csc2sc(-c3ccnc(SCC(=O)NCc4ccccc4)n3)c(C)c12	nt	-0.3%	2.1	3.5	29	16%	35
COc1ccc(NC(=O)CSc2nc(N)c3cc4c(nc3n2)CCCC4)c(OC)c1	0.4%	8.1%[38.3 µM]	0.8	-0.9	-16	-2%	-4
O=S(=O)(NCC1CCCO1)c1cc(Cl)ccc1Cl (stereo not given)	-1.3%	nt	1.3	0.5	-4	14%	3

The final two records of the section above are carried over, then new ones follow.
SMILES	ClpP mod	PINK1 expr mod	Menin MLL FP FL	TRPML1 agonist	TRPV1 potentiator	Sfp inh	TRPML1 inh
COc1ccc(NC(=O)CSc2nc(N)c3cc4c(nc3n2)CCCC4)c(OC)c1	0.4%	8.1%[38.3 µM]	0.8	-0.9	-16	-2%	-4
O=S(=O)(NCC1CCCO1)c1cc(Cl)ccc1Cl (stereo not given)	-1.3%	nt	1.3	0.5	-4	14%	3
FC(F)(F)COc1nc(N2CCOCC2)nc(N(c2ccccc2)c2ccccc2)n1	?	6.7%[38.3 µM]	3.7	-0.6	-1	13%	14
O=C(Nc1ccccc1)c1cc(S(=O)(=O)NCc2ccncc2)ccc1Cl	-5.9%	-1.0%	nt	-0.2	6	4%	-25
Cc1ccc(Oc2ccc(Cl)cc2NC(=O)c2cnccn2)cc1	0.3%	6.3%	2.9	-1.1	-7	15%	-3
COc1cccc(C(=O)c2c[nH]c(C(=O)NCc3ccco3)c2)c1	-1.6%	-0.5%	1.9	-0.7	29	12%	-1
CCN(CC)C(=O)CN(c1cccc(C(F)(F)F)c1)S(C)(=O)=O	-3.6%	-1.8%	7.0	-0.6	9	-1%	10
O=C(C1CCCCC1)N(Cc1cccnc1)c1nc2ccc(F)cc2s1	-2.0%	2.4%	nt	0.8	nt	nt	52
Cc1cc2oc(C(=O)Nc3c(C(=O)Nc4ccccc4)oc4ccccc34)cc(=O)c2cc1C	-18%	0.7%	nt	0.3	nt	nt	-11
O=C(CCC(=O)Nc1nnc(C2CCCCC2)s1)NCc1ccc(F)cc1	nt	0.5%	2.7	0.1	-17	-5%	-6
Cc1ccccc1N1CCN(Cc2cccc(C(=O)O)c2)CC1	0.5%	2.8%[38.3 µM]	0.9	-0.5	3	10%	-4
CC(=O)c1ccc(NC(=O)c2cc3sccc3n2Cc2ccc(Cl)cc2)cc1	?	2.3%	nt	0.7	nt	nt	29
CC1(N(O)/C=C2\C=CC=CC2=O)CCCCC1=O (stereo not given)	-3.8%	-0.5%	0.0	nt	3	6%	nt
CCc1nnc(NC(=O)CSc2nnc(C)n2CC2CCCO2)s1 (stereo not given)	-1.2%	-2.6%	3.8	3.7	-9	13%	-6
Cc1cc(=O)oc2c(C)c(OCC(=O)NCCCn3ccnc3)ccc12	4.2%	-0.9%	0.6	-0.8	-4	9%	47
COc1ccccc1CCN1CCCC(CN(C)C(=O)c2ccc3nc[nH]c3c2)C1 (stereo not given)	-1.0%	2.0%	nt	-0.1	27	3%	-8
CCCN(CCC)S(=O)(=O)c1ccc(C(=O)NCc2ccc3c(c2)OCO3)cc1	-0.8%	-0.2%	3.2	0.1	-7	19%	-3
CCCCN(CC)C(=O)C1CCC(=O)N(c2ccc(OC)cc2)C1c1ccc(OC)c(OC)c1 (stereo not given)	0.8%	0.4%	nt	-0.4	nt	nt	2
O=C(NNC(=S)Nc1ccccc1C(F)(F)F)c1ccc(Br)o1	-1.0%	-0.1%	1.1	0.7	-8	15%	25
Cc1cccc2cc(CN(C(=O)c3cccs3)c3ccccc3)c(=O)[nH]c12	-22%	17%	-0.6	0.5	-3	13%	5
CCOC(=O)c1cc(NC(=O)c2ccc(OC)cc2)c(=O)n2c1oc1ccc(Cl)cc12	0.0%	0.7%	nt	0.1	nt	nt	26
Cc1ccc(SCc2cn3cccnc3n2)cc1	3.1%	2.6%	3.0	0.0	-3	-1%	1
O=C(CSc1nc(-c2ccccc2)cc(=O)[nH]1)Nc1ccccn1	-1.4%	2.6%	5.2	-0.3	0	-6%	1
Cc1ccc(S(=O)(=O)N2CCN(C(=O)COC(=O)c3ncc(Cl)c(Cl)c3Cl)CC2)c(C)c1	0.2%	-0.8%	nt	0.4	nt	nt	36
CC(C)CNS(=O)(=O)c1cc(C(=O)OCC(=O)c2ccc3c(c2)OCCO3)c(Cl)cc1Cl	nt	1.1%	4.8	1.6	-2	2%	11
CCc1ccc(Nc2sc(C(=O)c3ccccc3)c(N)c2S(C)(=O)=O)cc1	-4.4%	3.2%	nt	0.7	nt	nt	6
Cc1cc(NC(=O)CCc2ccccc2)c([N+](=O)[O-])cc1C	-0.6%	5.3%	9.6	3.3	-19	-14%	0

Random draw from the library (roughly 4.4% active in at least one column).
